# Assay outcomes from PubChem BioAssay.
# NOMO-1 viab – STK33 inhibitor candidate reducing NOMO-1 cell viability. NOMO-1 AML viability, CellTiter-Glo luminescence, 72 h. inhibition, % (concentration not given with the values). 37,000 compounds, 7.5% hits. AID 2330;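 active = most replicates above 80%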;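 note: wells of about 30 µL received 25 nL stock; 0% = median of vehicle wells and 100% = reference inhibitor level; the first replicate is given; inactives centre near 10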
# An asterisk follows results filed as active.
SMILES,NOMO-1 viab
COc1ccc(S(=O)(=O)N(C)CC(=O)Nc2ccc(C(N)=O)cc2)cc1,-1.1
C[C@H](CO)N1C[C@H](C)[C@@H](CN(C)Cc2ccc(C(F)(F)F)cc2)Oc2ccc(NC(=O)CCCN(C)C)cc2C1=O,0.2
Cc1ccc(S(=O)(=O)Nc2cccc3c2O[C@H](CN(C)C(=O)Nc2ccc(F)cc2)[C@@H](C)CN([C@@H](C)CO)C3=O)cc1,-2.3
COc1ccc(S(=O)(=O)N(C)C[C@@H]2Oc3c(NC(=O)c4nc5ccccc5s4)cccc3C(=O)N([C@H](C)CO)C[C@@H]2C)cc1,117.0*
C[C@H](CO)N1C[C@H](C)[C@H](CN(C)C(=O)Nc2ccc(F)cc2)Oc2ccc(NS(=O)(=O)c3ccc(F)cc3)cc2C1=O,1.5
COc1ccc(NC(=O)N(C)C[C@H]2Oc3ccc(NC(=O)C4CC4)cc3CC(=O)N([C@H](C)CO)C[C@H]2C)cc1,-4.0
COc1ccc(NC(=O)C2CCCCC2C(=O)O)cc1 (centres undefined),0.6
COc1ccc(S(=O)(=O)N(C)C[C@H]2Oc3ccc(NS(=O)(=O)c4cccs4)cc3CC(=O)N([C@@H](C)CO)C[C@H]2C)cc1,-2.3
O=C(COc1cc(Cl)c(Cl)cc1Cl)NCc1ccco1,7.4
C[C@@H]1CN([C@@H](C)CO)C(=O)c2cc(NS(C)(=O)=O)ccc2O[C@H]1CN(C)C(=O)Nc1ccc(C(F)(F)F)cc1,14.4
CC(C)CNC(=O)C1Sc2nnc(-c3ccccc3)n2NC1c1ccccc1 (centres undefined),-9.8
C=C1C(=O)O[C@@H]2[C@H]3C(C)=CC(=O)C3=C(C)C[C@H](O[C@@H]3O[C@H](CO)[C@@H](O)[C@H](O)[C@H]3O)[C@@H]12,2.9
C[C@H](CO)N1C[C@H](C)[C@H](CN(C)S(=O)(=O)c2ccccc2)Oc2c(NC(=O)c3nc4ccccc4s3)cccc2C1=O,87.7*
COc1ccc(CN(C)C[C@@H]2Oc3ccc(NC(=O)NC4CCCCC4)cc3CC(=O)N([C@H](C)CO)C[C@H]2C)cc1,18.0
Oc1ccccc1C=Nc1cccc2ccccc12,52.5
C[C@H](CO)N1C[C@H](C)[C@@H](CN(C)C(=O)Nc2ccc(F)cc2)Oc2c(NC(=O)CCCCCC(=O)Nc3ccccc3N)cccc2C1=O,23.1
Cc1ccc(S(=O)(=O)Nc2ccc3c(c2)C(=O)N([C@H](C)CO)C[C@@H](C)[C@@H](CN(C)Cc2ccc(Oc4ccccc4)cc2)O3)cc1,70.2
C[C@H](CO)N1C[C@H](C)[C@H](CN(C)S(=O)(=O)c2cccs2)Oc2ccc(NC(=O)CCCCCC(=O)Nc3ccccc3N)cc2C1=O,3.3
Cc1ccc(S(=O)(=O)N(C)C[C@@H]2Oc3ccc(NS(=O)(=O)c4ccccc4)cc3C(=O)N([C@@H](C)CO)C[C@H]2C)cc1,32.5
CC(Sc1nc(N)cc(=O)[nH]1)C(=O)Nc1ccc(Cl)cc1 (centres undefined),5.6
Cc1noc(C)c1NC(=O)N(C)C[C@@H]1Oc2c(NC(=O)Nc3cccc4ccccc34)cccc2C(=O)N([C@H](C)CO)C[C@@H]1C,39.8
C[C@@H]1CN([C@@H](C)CO)C(=O)Cc2cc(NC(=O)Nc3ccc(C(F)(F)F)cc3)ccc2O[C@@H]1CN(C)Cc1ccc(C(=O)O)cc1,4.8
CC(C)(C)c1ccc(OCC(=O)Nc2cccc3ncccc23)cc1,16.6
CC(Oc1ccc(Cl)cc1Cl)C(=O)Nc1cc(Cl)ccc1C(=O)O (centres undefined),0.7
O=C(CSc1nnnn1-c1ccc(Cl)cc1)Nc1cccc2ccccc12,7.7
CCOC(=O)CSc1n[nH]c(CN2c3ccccc3Sc3ccccc32)n1,116.7*
CS(=O)(=O)N(CC(=O)Nc1cc(Cl)ccc1Cl)c1cccc2ccccc12,-14.4
Cc1ccc(S(=O)(=O)N(C)C[C@H]2Oc3c(NC(=O)c4ccncc4)cccc3C(=O)N([C@H](C)CO)C[C@H]2C)cc1,4.9
CNC[C@@H]1Oc2ccc(NS(=O)(=O)c3ccc(C)cc3)cc2C(=O)N([C@H](C)CO)C[C@@H]1C,14.4
CS(=O)(=O)N(CC(=O)O)Cc1ccccc1,-12.8
Cn1c(SCc2nc3ccccc3[nH]2)nnc1-c1cnccn1,-4.2
Cc1ccc([N+](=O)[O-])cc1NC(=O)C1(c2ccccc2)CCN(S(=O)(=O)c2ccccc2)CC1,29.9
C[C@H](CO)N1C[C@H](C)[C@H](CN(C)Cc2ccc3c(c2)OCO3)Oc2c(NC(=O)Nc3ccc(C(F)(F)F)cc3)cccc2C1=O,104.1*
C[C@@H]1CN([C@H](C)CO)C(=O)c2cccc(N(C)C)c2O[C@@H]1CN(C)C(=O)Nc1ccc(F)cc1,0.6
CC(C)NC(=O)N(C)C[C@H]1OCCCC[C@@H](C)Oc2ccc(NC(=O)Cc3ccccc3)cc2C(=O)N([C@H](C)CO)C[C@@H]1C,-6.4
C[C@@H]1CN([C@H](C)CO)C(=O)c2cc(NC(=O)C3CC3)ccc2O[C@@H]1CN(C)Cc1ccc(C(=O)O)cc1,-10.6
C[C@H](CO)N1C[C@H](C)[C@H](CN(C)Cc2ccc(C(=O)Nc3ccccc3N)cc2)Oc2ccc(NC(=O)Cn3cnnn3)cc2C1=O,49.5
Cc1nc(SCC(=O)c2ccc(Cl)cc2)c2c3c(sc2n1)CCCC3,-24.4
C[C@@H]1CN([C@H](C)CO)C(=O)c2cccc(NS(C)(=O)=O)c2O[C@H]1CN(C)CC1CCCCC1,-18.2
N#Cc1c(NC(=O)CSc2n[nH]c(-c3ccc(Cl)cc3)n2)sc2c1CCCC2,7.9
Cc1ccc(S(=O)(=O)Nc2ccc3c(c2)C(=O)N([C@@H](C)CO)C[C@@H](C)[C@H](CN(C)C)O3)cc1,-1.3
COc1ccc(S(=O)(=O)Nc2ccc3c(c2)C(=O)N([C@@H](C)CO)C[C@H](C)[C@H](CN(C)CC2CC2)O3)cc1,18.3
Cc1cc(Cl)c(S(=O)(=O)Nc2cccnc2)cc1OCC(N)=O,11.6
O=C(NC(N1CCCC1=O)(C(F)(F)F)C(F)(F)F)c1cccnc1,-2.0
COc1cccc(NC(=O)CCc2nc(-c3ccccc3Cl)no2)c1,-3.2
O=C(CN1CCCCC1)Nc1ccc(NC(=O)CN2CCCCC2)cc1,20.0
CC(=O)Nc1ccc(S(=O)(=O)N2CCCCC2C)cc1 (centres undefined),11.1
C[C@H]1CN([C@@H](C)CO)C(=O)Cc2cc(NC(=O)C3CC3)ccc2O[C@H]1CN(C)Cc1ccc(C(F)(F)F)cc1,-10.3
COc1ccc(NC(=O)N(C)C[C@@H]2OCCCC[C@@H](C)Oc3ccc(NS(=O)(=O)c4cccs4)cc3C(=O)N([C@H](C)CO)C[C@@H]2C)cc1,15.3
COc1ccc(NC(=O)Nc2cccc3c2O[C@@H](CN(C)CC2CC2)[C@H](C)CN([C@@H](C)CO)C3=O)cc1,39.8

# (further entries)
SMILES,NOMO-1 viab
CCC(C)Nc1nc(OC)nc(Oc2ccc(=O)[nH]n2)n1 (centres undefined),24.9
O=C(COc1ccc([N+](=O)[O-])cc1)Nc1cccc2cccnc12,11.0
Cc1ccc2c(c1)C(C)(C)C1(C)N(Cc3ccccc3)C(=O)CN21 (centres undefined),9.1
C[C@@H]1CN([C@H](C)CO)C(=O)Cc2cc(NC(=O)CCC(F)(F)F)ccc2O[C@H]1CN(C)Cc1ccc(-c2ccccc2)cc1,33.6
COc1ccc(NC(=O)Nc2ccc3c(c2)CC(=O)N([C@H](C)CO)C[C@@H](C)[C@@H](CN(C)C(=O)Nc2ccc(OC)cc2)O3)cc1,40.3
Cc1nnc(SCC(=O)Nc2ccc(C)c(Cl)c2)s1,-1.7
C[C@H]1CN([C@@H](C)CO)C(=O)Cc2cc(NC(=O)Cc3cn(C)c4ccccc34)ccc2O[C@H]1CN(C)CC1CC1,-8.8
CC(C)NC(=O)N(C)C[C@@H]1Oc2ccc(NC(=O)Nc3cccc4ccccc34)cc2CC(=O)N([C@H](C)CO)C[C@@H]1C,-7.2
Cc1ccc(S(=O)(=O)N(C)C[C@H]2Oc3ccc(NC(=O)Cc4cn(C)c5ccccc45)cc3CC(=O)N([C@@H](C)CO)C[C@@H]2C)cc1,24.0
C[C@H](CO)N1C[C@H](C)[C@@H](CN(C)C(=O)Nc2ccccc2)Oc2c(NS(=O)(=O)c3ccccc3)cccc2C1=O,24.1
Cc1ccc(S(=O)(=O)NC(C)C(=O)Nc2cc([N+](=O)[O-])ccc2C)cc1 (centres undefined),-4.4
CC1CCCCN1CCCNC(=O)Nc1ccc(Cl)cc1 (centres undefined),19.2
C[C@H]1CN([C@@H](C)CO)C(=O)Cc2cc(NS(=O)(=O)c3ccc(F)cc3)ccc2O[C@@H]1CN(C)S(C)(=O)=O,-8.0
CC12CCC(C(=O)N3NC(=O)[C@@H](c4ccccc4)[C@@H]3c3ccccc3)(OC1=O)C2(C)C (some centres undefined),29.6
Cc1ccccc1OCc1nnc(SCC(N)=O)n1C,-6.3
CC(C)c1ccc2c(c1)CCC1C(C)(C(N)=O)CCCC21C (centres undefined),39.4
C[C@@H]1CCCCO[C@@H](CN(C)C(=O)CCC(F)(F)F)[C@@H](C)CN([C@H](C)CO)C(=O)c2cc(NS(=O)(=O)c3ccc(F)cc3)ccc2O1,56.8
COc1ccc(S(=O)(=O)Nc2ccc3c(c2)CC(=O)N([C@H](C)CO)C[C@@H](C)[C@@H](CN(C)S(=O)(=O)c2cn(C)cn2)O3)cc1,19.5
COc1ccc(N(C(C)C(=O)Nc2ccc(Cl)cc2C)S(C)(=O)=O)cc1 (centres undefined),32.1
C[C@@H]1CN([C@@H](C)CO)C(=O)c2cc(NC(=O)CCC(F)(F)F)ccc2O[C@@H]1CN(C)Cc1ccc(-c2ccccc2)cc1,63.5
O=C(CC1(O)C(=O)N(Cc2ccccc2)c2ccccc21)c1cc2ccccc2oc1=O (centres undefined),104.6*
O=C(NCCOc1nc(N2CCOCC2)nc(N2CCOCC2)n1)Nc1ccc(Cl)cc1,15.6
C[C@@H]1CCCCO[C@@H](CN(C)Cc2ccc3c(c2)OCO3)[C@@H](C)CN([C@H](C)CO)C(=O)c2cc(NC(=O)Nc3ccc(F)cc3)ccc2O1,16.1
COc1ccc(C(=O)NC(c2ccc(OC)c(OC)c2)c2cc(Cl)c3cccnc3c2O)cc1 (centres undefined),121.6*
CC(C)OCCCNc1ncnc(N)c1[N+](=O)[O-],33.2
C[C@H](CO)N1C[C@H](C)[C@@H](CN(C)S(=O)(=O)c2ccc(Cl)cc2)Oc2c(NC(=O)Nc3ccc4c(c3)OCO4)cccc2C1=O,19.4
CC(C)(C)Nc1nc(SCC(=O)Nc2ccccc2Cl)nc(N2CCOCC2)n1,23.5
COc1cc(NC(=O)C(Sc2nc(C)cc(C)c2C#N)c2ccccc2)c(OC)cc1Cl (centres undefined),6.0
COc1cc([N+](=O)[O-])ccc1NC(=O)COc1ccc2ccccc2c1,3.5
CC1NC(=O)C(C#N)=C(SCc2ccccc2)S1 (centres undefined),74.2
C[C@@H]1CN([C@H](C)CO)C(=O)Cc2cc(NS(=O)(=O)c3ccc(F)cc3)ccc2O[C@H]1CN(C)Cc1ccc2c(c1)OCO2,15.6
CCCCC/C=C\C/C=C\CCCCCCCC(=O)NCC(=O)O,-1.3
COc1ccc(S(=O)(=O)N(C)C[C@@H]2Oc3c(NC(=O)C4CCOCC4)cccc3C(=O)N([C@@H](C)CO)C[C@H]2C)cc1,24.6
CCOc1ccc(Cl)cc1S(=O)(=O)n1cnc2ccccc21,114.4*
CS(=O)(=O)N(CC(=O)NC1CCCCC1)c1ccc(Cl)cc1Cl,34.7
C[C@H](CO)N1C[C@H](C)[C@@H](CN(C)C(=O)Nc2ccccc2)Oc2ccc(NC(=O)c3ccncc3)cc2C1=O,-11.9

# Only part of the results is shown; rates above refer to the full screens.
